Compound activity deposited in PubChem BioAssay by National Center for Advancing Translational Sciences (NCATS).
ClpP mod: qHTS Assay for Activators of ClpP; ATP-dependent Clp protease proteolytic subunit (Bacillus subtilis (strain 168)), P80244; purified B. subtilis ClpP, FRET peptide cleavage, 20 min; Potency, µM (titrated, usually from 57.5 µM), for the others: top-dose activity change, negative = active; 1.9% of 340,000 active; AID 651965, 2013; active = well fitted falling curve with a large enough effect; inconclusive = small, poorly fitted or top-dose-only effect; inactive = no such curve, though single readings can be large or run the other way; further: potency means the concentration at half of the fitted maximal effect; the source files actives as falling curves though it sought activators and does not explain the sign; nearly all actives have a fitted effect of over 65% in size; many hits overshoot -100%
Target sequence (P80244 whole entry, looked up): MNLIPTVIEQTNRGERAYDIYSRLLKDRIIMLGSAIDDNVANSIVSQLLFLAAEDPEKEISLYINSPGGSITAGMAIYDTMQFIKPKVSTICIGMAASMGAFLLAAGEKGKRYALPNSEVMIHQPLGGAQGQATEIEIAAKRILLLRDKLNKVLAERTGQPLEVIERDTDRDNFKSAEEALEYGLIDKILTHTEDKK
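ClpP 10 microg/mL final, pH 8 Tris/KCl buffer with BSA, glycerol, Tween-20; compound pinned in; FRET-FV substrate; RT 20 min; Ex320/Em430; ΔFRET vs ADEP 5.8 microM, DMSO, no enzyme.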
TRPML1 inh: qHTS for Inhibitors of the Human Mucolipin Transient Receptor Potential 1 (TRPML1); TRPML1-inducible cells, Ca2+ dye fluorescence, FDSS; stronger effect = lower value; inhibition of EC80 agonist-evoked calcium signal; activity change, negative = inhibition, % (concentration not given with the values); 0.02% of 390,000 active; in the data active means activity change below about -50%; inconclusive means about -30% to -50%; inactive means above about -30%;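 further: stimulus is agonist 54-4 at its EC80 concentration; on the % scale 0 is the no-effect control and ±100 the full control effect; compound concentration not given in the record; the text of the record puts the active cut at -80%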
Target sequence (Q9GZU1 whole entry, looked up): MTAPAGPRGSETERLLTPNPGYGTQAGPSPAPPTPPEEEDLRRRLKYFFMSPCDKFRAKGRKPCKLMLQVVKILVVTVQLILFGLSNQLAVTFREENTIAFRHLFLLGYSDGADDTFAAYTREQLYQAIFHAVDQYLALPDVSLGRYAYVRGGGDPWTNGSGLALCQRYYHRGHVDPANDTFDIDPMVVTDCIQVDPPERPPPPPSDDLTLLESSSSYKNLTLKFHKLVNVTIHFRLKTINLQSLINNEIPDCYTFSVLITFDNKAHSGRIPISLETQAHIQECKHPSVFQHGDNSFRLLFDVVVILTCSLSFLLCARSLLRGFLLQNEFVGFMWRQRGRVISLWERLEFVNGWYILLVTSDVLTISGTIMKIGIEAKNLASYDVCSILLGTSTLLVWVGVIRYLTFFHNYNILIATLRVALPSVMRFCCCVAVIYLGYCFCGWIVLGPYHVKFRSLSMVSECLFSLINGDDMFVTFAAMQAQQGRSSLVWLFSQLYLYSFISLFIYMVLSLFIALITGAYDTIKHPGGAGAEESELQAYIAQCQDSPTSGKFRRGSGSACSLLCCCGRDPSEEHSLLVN
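TRPML1-DL cells, Tet-induced overnight (~16 h, 37 °C) at 1,500 cells/well, were loaded with Ca8 no-wash dye plus quencher for 45-90 min at room temperature. Compounds were pinned during FDSS kinetic reading; agonist 54-4 at EC80 (4 uM final) then added.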
Menin-MLL FL inh: qHTS Assay for Inhibitors Targeting the Menin-MLL Interaction in MLL Related Leukemias: Competition With Fluorescein Labeled MLL-derived Peptide; 290,000 tested, under 10 active; FP activity change, % at 61.4 µM; Fluorescence polarization, fluorescein-MLL peptide displacement from menin; AID 1766, 2009; inconclusive = falling polarisation curve, or a change in total fluorescence; inactive = total fluorescence flat and polarisation flat or rising; no compound was filed as active; the % refers to the polarisation; negative = inhibition;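 further: % of control where 0% means no effect; inhibitors lower the polarisation; unlabelled MLL peptide was the positive control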
gsp antagonist: qHTS for Antagonists of gsp, the Etiologic Mutation Responsible for Fibrous Dysplasia/McCune-Albright Syndrome: qHTS; gsp-mutant cells, cAMP HTRF, 30 min; control for the full effect not named in the record; Potency, µM (highest dose often 76.9 µM), for the others: at the highest dose activity change, negative = inhibition, actives largely listed as inhibitors; 0.4% of 340,000 active; AID 624288, 2012; active = falling curve of any shape with a large fitted effect; inconclusive = falling curve, mostly with a smaller effect; inactive = flat or rising curve; cell line not stated here;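 further: intracellular cAMP measured with PDE inhibitor Ro 20-1724 present during compound exposure; potency means the concentration at half of the fitted maximal effect; on the % scale 0 is the no-effect control and ±100 the full control effect; nearly all actives have a fitted effect of over 65% in size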
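HTRF cAMP read-out (cAMP-d2 plus anti-cAMP antibody-K in lysis buffer, 30 min RT). Before lysis, cells are exposed to compounds with […] for 30 min at 37C in DPBS containing Ca/Mg, BSA and Tween 20.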
TRPV1 potentiator: HTS Assay for Compounds that Act as Potentiators of the Vanilloid Receptor 1 | TRPV1-expressing cells, Fluo-8 calcium influx, capsaicin EC20 potentiation; host cell line not named in the record; control for the full effect not named in the record | potentiation, % at 8.33 µM | 0.02% of 320,000 active; active means potentiation above 80%; inconclusive means 30% to 80%; inactive means below 30%; further: 0% is about no effect
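Fluo-8 calcium influx in TRPV1-expressing cells, kinetic read (ex 480/em 520 nm). Compound added and read 3 min for agonist activity, followed by capsaicin at EC20 final and 2 min further read for enhancement.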
gsp ag: qHTS for Agonist of gsp, the Etiologic Mutation Responsible for Fibrous Dysplasia/McCune-Albright Syndrome: qHTS; 0.13% of 340,000 active; Potency, µM (series often up to 76.9 µM), for inactives: at the top dose activation (cAMP increase), hits mostly activators; gsp mutant cells, cAMP HTRF, 30 min; control for the full effect not named in the record; active = well fitted activation curve with a large enough effect; inconclusive = small, poorly fitted or top-dose-only effect, or another doubt; inactive = no such curve, though single readings can be large or run the other way; cell line not stated here;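 further: phosphodiesterase inhibitor Ro 20-1724 added with compounds to block cAMP breakdown; potency means the concentration at half of the fitted maximal effect; nearly all actives have a fitted effect of over 60% in size; about a fifth of the inactives were tested at one dose only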
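Cells in DMEM/10% FBS with G418 were pretreated with compounds in DMSO plus […] (300 uM stock) for 30 min at 37C. cAMP was measured by HTRF (cAMP-d2 plus anti-cAMP antibody-K) after 30 min at room temperature.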
Sfp PPTase inh: qHTS Assay for Inhibitors of Bacillus subtilis Sfp phosphopantetheinyl transferase (PPTase); AID 1490, 2009; Biochemical Sfp PPTase activity, qHTS; 3.5% of 310,000 active; 4'-phosphopantetheinyl transferase ffp (Bacillus subtilis), Q9F4F7; Potency, µM, for inactives: max response, negative = inhibition, hits mostly inhibitors; active means well fitted inhibition curve with a large enough effect; inconclusive means small, poorly fitted or top-dose-only effect, or another doubt; inactive means no such curve, though single readings can be large or run the other way;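 further: the enzyme is Sfp with the accession as filed and its product quenches rhodamine fluorescence; potency means the concentration at half of the fitted maximal effect; 0% = enzyme reaction without inhibitor and -100% = no enzyme wells; top concentration of the series not given in the record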
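Step 1, compound plus 15 nM Sfp-PPTase, 15 min, room temperature. Step 2, add rhodamine-CoA (5 uM) and BHQ-2-YbbR (12.5 uM). Step 3, read 525/598 nm fluorescence at 0 and 30 min.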
An asterisk follows results filed as active; ? = inconclusive; nt = no result given; & = joins results of further samples; [ ] = dose if it differs, or a comment. Random draw from the library (roughly 4.9% active in at least one column).

SMILES	ClpP mod	TRPML1 inh	Menin-MLL FL inh	gsp antagonist	TRPV1 potentiator	gsp ag	Sfp PPTase inh
COc1cc(NC(=O)COC(=O)CNC(=O)c2cc(C)cc(C)c2)c(C)cc1[N+](=O)[O-]	nt	12.6	6.2	-12.7%	4.3	3.8%	-10.8%
O=C(NNC(=O)c1ccc(Cl)c(S(=O)(=O)Nc2ccc(Cl)cc2)c1)c1ccc(=O)[nH]c1	-3.8%	-0.6	nt	10.7%	6.6	-4.3%	nt
COc1ccc(C(=O)NC(=S)N2CCN(c3ccccc3OC)CC2)cc1OC	0.6%	-3.9	-5.9	4.9%	9.2	1.4%	?
CCCc1cc(=O)oc2cc(C)cc(OCC(=O)NC3CCN(Cc4ccccc4)CC3)c12	?	-9.1	0.6	-0.5%	-16.5	1.2%	10.9%
COCCNC(=O)CCN1N=C(c2ccccc2)CCC1=O	nt	25.6	2.7	6.6%	21.3	-1.2%	10.3%
O=C(NC1CCCCC1)C(c1ccccn1)N(C(=O)c1csnn1)c1ccccc1F (stereo not given)	nt	10.2	-1.2	-9.2%	0.5	0.5%	10.1%
Cc1ccccc1NC(=O)C1Cc2ccccc2CN1C(=O)OCc1ccccc1 (stereo not given)	0.7%	15.4	-2.9	0.7%	-6.4	6.7%	11.4%
Cc1ccc(Cl)cc1NC(=O)c1cc2ccccc2cc1O	-2.0%	24.2	13.1	?	1.2	?	-13.2%
Cc1ccc(NC(=O)COC(=O)CN2C(=O)C3CCCCC3C2=O)cc1C (stereo not given)	1.7%	-3.3	nt	-6.0%	-16.7	6.6%	nt
Cc1cc(NC(=O)C2CCCCC2)nc2c1c(=O)oc1ccccc12	0.3%	4.3	1.8	4.8%	-8.1	?	-8.0%
Cc1cc(C)n2nc(SCCC(=O)NCCc3ccccc3)nc2n1	-5.6%	9.9	-1.7	10.9%	-0.6	-33.3%[inhibitor]	12.1%
NC(=O)c1cc(S(=O)(=O)NCc2cccc(Br)c2)cs1	-0.4%&-1.6%	-13.6&9.3	nt	-12.5%	29.4	19.9%	10.7%
COc1ccc(NC(=O)CSc2nnc(-c3cccs3)n2C)cc1OC	0.0%	3.7	1.8	-5.9%	23.3	7.3%	-1.6%
O=C(O)c1ccc2nnn(O)c2c1	nt	11.8	-1.3	11.5%	0.8	4.7%[15.4 µM]	-8.9%
O=c1[nH]n2c(=O)c3c([nH]c2c1N=Nc1ccccc1)CCC3	-0.2%	2.2	-0.4	?	8.7	-2.5%	30.3%
O=C(O)c1cccc2c1-c1ccc(Cl)cc1C2=O	2.4%	1.4	nt	-13.7%	nt	13.3%	nt
CC(C)(C)c1ccc(S(=O)(=O)C(C)(C)C)cc1	nt	-2.9	-9.0	9.5%	-18.0	-11.6%[15.4 µM]	11.5%
Nc1nc(-c2ccco2)c(-c2ccco2)s1	-2.0%	-15.5	?	6.5%	14.4	25.6%	15.8µM*
O=C(CN(C(=O)Cn1nnc(-c2cccs2)n1)c1ccc2c(c1)OCCO2)NCC1CCCO1 (stereo not given)	5.1%	-14.3	-1.1	25.5%	1.2	21.7%	27.0%
O=C(NCCc1ccc(F)cc1)c1cccs1	-0.8%	-21.8	1.3	-3.3%	-12.3	-2.4%	22.7%
Cc1ccsc1C(C(=O)NC(C)(C)C)N(C(=O)c1csnn1)c1ccccc1 (stereo not given)	-0.1%	-3.4	2.5	6.0%	-3.7	-19.8%	11.7%
OCCN1C[C@H](O)[C@@H](O)[C@H](O)[C@H]1CO	nt	nt	5.1	nt	-2.3	nt	16.0%
O=S(=O)(c1ccc(NC(=S)N2CCCCC2)cc1)N1CCCCC1	0.1%	-10.3	nt	nt	nt	-17.8%	nt
CCN(CC)S(=O)(=O)c1cccc(S(=O)(=O)N2CCCCC2)c1	-3.7%	12.6	-2.0	-6.7%	-6.8	?	17.1%
Cn1c(C(=O)Nc2ccc(Cl)cc2)cc2cc(Cl)ccc21	-15.4%	-5.3	2.7	-6.4%	-11.1	?	13.3%

Profiles, quoted from the list. Order of screens: ClpP mod | TRPML1 inh | Menin-MLL FL inh | gsp antagonist | TRPV1 potentiator | gsp ag | Sfp PPTase inh
Entry for Cc1ccccc1NC(=O)C1Cc2ccccc2CN1C(=O)OCc1ccccc1 (stereo not given) = 0.7% | 15.4 | -2.9 | 0.7% | -6.4 | 6.7% | 11.4%
Entry for O=C(NNC(=O)c1ccc(Cl)c(S(=O)(=O)Nc2ccc(Cl)cc2)c1)c1ccc(=O)[nH]c1 = -3.8% | -0.6 | nt | 10.7% | 6.6 | -4.3% | nt

Continuation.
SMILES	ClpP mod	TRPML1 inh	Menin-MLL FL inh	gsp antagonist	TRPV1 potentiator	gsp ag	Sfp PPTase inh
Cc1cc(C)cc(OCCn2c(C3CC(=O)N(c4ccccc4Cl)C3)nc3ccccc32)c1 (stereo not given)	-5.3%	26.7	nt	nt	-7.8	nt	nt
CSc1nc(Nc2ccc(Cl)cc2)c(C#N)c(=O)[nH]1	1.5%	5.7	3.3	-4.0%	3.8	2.3%[15.4 µM]	21.3%
CN(C)CCCn1c(=S)[nH]c2ccccc2c1=O	nt	-15.3	-6.0	10.2%	0.9	19.7%	?
Cc1ccnc2nc(C(=O)OC(C)C(=O)NCc3ccccc3)nn12 (stereo not given)	0.8%	21.6	nt	17.0%	-19.8	?	nt
O=C(CN1CCN(CC(=O)Nc2ccccn2)CC1)Nc1ccccn1	-1.8%	-11.0	4.7	1.9%	-3.9	-17.1%	-2.6%
COC(=O)COc1ccc(NC(=O)Cn2nc(-c3ccccc3)c3ccccc3c2=O)cc1	-0.5%	8.7	-0.7	2.4%	2.9	?	5.6%
Cc1ccc(C)c(N(CC(=O)NCc2ccc3c(c2)OCO3)C(=O)CCC(=O)Nc2ccccn2)c1	-7.5%	-11.3	2.3	-4.1%	1.1	2.2%	9.8%
c1ccc(-c2nc(-c3cccs3)[nH]c2-c2ccccc2)cc1	31.6µM*	32.4	3.3	-10.2%	7.1	-1.1%	18.0%
C=CCNC(=S)Nc1cccc2ccccc12	-21.3%	16.5	2.9	4.1%	7.2	?	79.4µM*
CCN(C(=O)COC(=O)c1ccc(SC)cc1OC)C1CCS(=O)(=O)C1 (stereo not given)	-3.1%	-7.8	nt	12.9%	nt	-3.2%	nt
Cc1ccc(S(=O)(=O)N2CCN(C(=O)COC(=O)/C=C/c3ccccc3)CC2)c(C)c1	-0.6%	-3.9	nt	0.8%	10.6	6.6%	nt
Cc1cnc(C(=O)OCC(=O)N(CC(C)C)C2CCS(=O)(=O)C2)cn1 (stereo not given)	1.7%	10.0	nt	10.7%	nt	9.3%	nt
COC(=O)C1CCN(C(=O)COC(=O)c2oc3ccc(OC)cc3c2C)CC1	-0.3%	40.1	-7.4	-5.3%	-7.1	8.1%[15.4 µM]	4.6%
O=C(Nc1ccc(C(F)(F)F)cc1)c1ccccc1Br	nt	-22.2	4.6	-16.8%	4.2	16.4%[15.4 µM]	9.9%
CC1CCCN(S(=O)(=O)c2cccc(-c3cn4cccnc4n3)c2)C1 (stereo not given)	?	-9.8	3.5	-22.6%	?	-24.1%	10.4%
Cc1cnc(C(=O)OCC(=O)Nc2c(Cl)cc(Cl)cc2Cl)cn1	-0.9%	-7.1	nt	0.2%	19.1	-27.0%	nt
COCC(=O)Nc1ccc2c(c1)[C@@H]1C[C@H](CC(=O)NCc3cccc(F)c3)O[C@@H](CO)[C@@H]1O2	-0.3%	-9.2	nt	nt	nt	-53.1%[inhibitor]	nt
C/C(=N\N=C\c1cccc(F)c1)c1nnn(-c2nonc2N)c1C	-3.7%	35.4	4.8	-22.2%	5.9	-16.7%	7.6%
Cc1ccc(/C=C/C(=O)N2CCN(S(=O)(=O)c3ccc(C)c(C)c3)CC2)o1	-1.1%	-11.4	3.8	0.9%	8.4	8.3%	17.8µM*
OCCN1CN=C(Nc2nc3ccccc3s2)NC1	0.5%	5.5	2.8	3.5%	1.3	-35.1%[inhibitor]	11.9%
COc1ccc(C2C(C(=O)c3ccc(C)o3)=C(O)C(=O)N2Cc2cccnc2)cc1 (stereo not given)	-0.2%	-4.1	-1.0	12.0%	7.3	-6.7%[15.4 µM]	-3.5%
CC1CCCC(NC(=O)CSc2nnc(-c3cccnc3)n2N)C1C (stereo not given)	-0.4%	-14.7	nt	3.3%	nt	5.1%[15.4 µM]	nt
COc1ccc(NS(=O)(=O)c2cc(NC(=O)C3CC3)ccc2N2CCCCC2)cc1	nt	42.8	-0.1	-19.6%	-9.4	-0.1%	15.6%
COc1ccc(CCNc2c(C=O)c(=O)[nH]c3ccccc23)cc1OC	-0.6%	0.2	-8.0	-14.5%	?	4.4%	16.2%
Cc1ccc(-c2noc(C3CCCN(C(=O)c4c(F)cccc4F)C3)n2)cc1 (stereo not given)	0.6%	0.6	-0.1	?	-12.5	7.8%	-8.9%
CON(C)c1nc(OCCNC(=O)COc2ccc(Cl)cc2C)nc(N(C)C)n1	0.7%	16.1	1.4	-7.2%	7.1	12.6%	6.3%
COc1ccc([C@@H](OC)[C@@]2(Cc3ccc(O)cc3)N=C(N)N(C)C2=O)cc1	1.6%	10.3	nt	4.3%	1.8	-40.0%[inhibitor]	nt
Cc1cccc(C)c1NC(=O)CNC(=O)c1ccc2nc[nH]c2c1	nt	4.5	nt	5.4%	0.5	-6.3%[15.4 µM]	nt
CC(C)CNC(=S)Nc1ccccc1F	0.7%	-10.6	2.7	2.6%	-30.3	?	?
COc1ccc(NC(=O)/C=C2\SC(=O)NC2=O)cc1	nt	32.6	-4.7	-33.0%	9.2	5.6%[15.4 µM]	-15.0%
